eIF4H FP inh = human eIF4H binding inhibitors, primary screen, translation initiation inhibitor project, biochemical, uHTS, fluorescence polarization; eIF4H fluorescence polarization binding assay; inhibition, % at 35 µM; 0.94% of 290,000 active;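 active = 50% or more with normal probe brightness, or confirmed in later tests; inconclusive = above 50% with abnormal brightness, or retests that disagree; inactive = below 50% or failed in later tests; about a fifth of its hits are not listed in these tables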;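 also: calls also rest on retests at 20 µM and on dose response follow-up; 0% = protein and probe with vehicle and 100% = probe without protein; strong numbers were not always called active; many hits fall short of the cut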
PABP FP inh = PABP poly(A) RNA binding inhibitors, primary screen, biochemical, fluorescence polarization, uHTS. Polyadenylate-binding protein 1 (Homo sapiens), P11940. inhibition, % at 35 µM. 1% of 290,000 active. AID 2014, 2009;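 active = 50% or more with normal probe brightness, or confirmed in later tests; inconclusive = above 50% with abnormal brightness, or retests that disagree; inactive = below 50% or failed in later tests; about a fifth of its hits are not listed in these tables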;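 also: calls also rest on retests at 20 µM and on dose response follow-up; controls were probe without protein and protein plus probe with vehicle; some compounds called inactive have numbers as strong as hits; many hits fall short of the cut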
Target sequence (P11940 whole entry, looked up): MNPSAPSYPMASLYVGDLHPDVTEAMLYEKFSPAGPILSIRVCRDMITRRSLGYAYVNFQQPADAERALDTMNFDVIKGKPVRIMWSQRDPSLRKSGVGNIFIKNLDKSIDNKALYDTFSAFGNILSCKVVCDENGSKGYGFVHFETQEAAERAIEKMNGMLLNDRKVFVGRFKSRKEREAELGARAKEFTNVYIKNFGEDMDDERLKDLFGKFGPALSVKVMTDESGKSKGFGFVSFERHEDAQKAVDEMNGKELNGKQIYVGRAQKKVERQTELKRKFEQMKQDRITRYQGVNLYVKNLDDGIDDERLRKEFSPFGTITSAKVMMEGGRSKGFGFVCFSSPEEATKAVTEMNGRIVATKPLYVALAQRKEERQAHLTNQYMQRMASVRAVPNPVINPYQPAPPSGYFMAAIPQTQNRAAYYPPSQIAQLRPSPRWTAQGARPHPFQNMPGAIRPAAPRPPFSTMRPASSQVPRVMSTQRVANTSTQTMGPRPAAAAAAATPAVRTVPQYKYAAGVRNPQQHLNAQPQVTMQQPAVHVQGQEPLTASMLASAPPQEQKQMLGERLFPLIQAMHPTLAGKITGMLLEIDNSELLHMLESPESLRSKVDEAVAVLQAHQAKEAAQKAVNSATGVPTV
Rce1 inh = yeast Rce1p protease inhibitors, primary screen, biochemical, fluorescence, cell-free homogeneous; yeast membranes, quenched prenylated peptide cleavage fluorescence; calls only; 0.27% of 290,000 active; CAAX prenyl protease 2 (Saccharomyces cerevisiae (strain ATCC 204508 / S288c)), Q03530; AID 2563, 2010;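 active = fall in fluorescence gain of 50% or more versus controls, with final raw signal at or below 3038400; inconclusive = same 50% fall but final raw signal above 3038400; inactive = fall in fluorescence gain under 50%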;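 also: plate controls were neutral control wells for no effect and wells lacking membranes for full effect; tested at 10 µM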
MT1-MMP act inh = blockers of MT1-MMP proenzyme processing, primary screen, HT1080 RFP-PRO-GFP cells, GFP/RFP fluorescence; 0.061% of 360,000 active; AID 651647, 2012; GFP/RFP ratio change, % at 20 µM; Matrix metalloproteinase-14 (Homo sapiens), P50281; GFP/RFP ratio fluorescence, overnight; percent of plate control window, DMSO zero;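 active = GFP/RFP ratio change of at least 30% with cell ATP level not reduced by more than half and red fluorescence within 50% of control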; also: strong numbers were not always called active
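Test system: HT1080 cells expressing an RFP-PRO-GFP fluorescent reporter construct / Compound dosing: single-point 20 µM compound, 1% DMSO / Schedule: cells overnight before dosing, compound overnight, 37 °C, 5% CO2 / Evaluation: GFP/RFP fluorescence ratio / Control set: DMSO and RFP-L50D-GFP cell wells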
Env fusion inh = inhibitors of HIV-1 Env-driven cell-cell fusion, primary screen, HeLa-JRFL effector, CEM21 target cells, luciferase; 1.1% of 360,000 active; inhibition, % at 12.3 µM; AID 651610, 2012;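 active = mean replicate inhibition score of at least 50 and every replicate individually at or above 50; inconclusive = only one of the two criteria met; inactive = mean below 50 and not all replicates reaching 50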;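 also: 0% = plate neutral controls and 100% = maraviroc near 300 nM; one replicate is shown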
CSC inhib = cancer stem cell viability inhibitors, primary screen, luminescence; 1.1% of 300,000 active; cancer stem cell-like cells viability; inhibition, % at 7.5 µM;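 active = mean at 75% or more and at least half the replicates too; inconclusive = mean and replicates disagree; tested in HMLE shEcad cells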;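 also: 0% = median of negative and 100% = median of positive control wells; the first replicate is given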
UUG fidelity = modulators of yeast start codon fidelity, primary screen, whole organism, S. cerevisiae, single point, plate reader | S. cerevisiae UUG-firefly luciferase reporter, luminescence/redox ratio | activity score, % at 18.7 µM | 0.13% of 350,000 active | AID 602363, 2012;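 active = replicate mean at a twofold rise or more, about +100% in these data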;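 also: firefly luciferase made from a UUG start codon reports start codon fidelity; reporter light over untreated wells divided by growth signal over untreated wells; some hits fall short of that in this replicate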
MT1-MMP act inh RFP = second read-out of MT1-MMP act inh, no call of its own (marks repeat the call); RFP signal change, %; measured here: RFP expression control read;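 0 = vehicle wells; hits needed this value within 50% of zero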
Numbers without * were called inactive; i = inactive; u = inconclusive; x = not tested or not shown.

SMILES	eIF4H FP inh	PABP FP inh	Rce1 inh	MT1-MMP act inh	MT1-MMP act inh RFP	Env fusion inh	CSC inhib	UUG fidelity
Cc1nnc(SCCC(=O)Nc2ccccc2Cl)o1	1	-2	i	-3	-2	-6	-11	-15
O=C(O)c1ccccc1NC(=S)NC(NC(=O)c1ccccc1[N+](=O)[O-])C(Cl)(Cl)Cl (stereo unspecified)	-12	3	i	0	-3	-76	-5	-21
O=C(O)C1CCCNC1 (stereo unspecified)	4	17	i	2	4	x	-4	-19
N#Cc1ccc(COC(=O)c2ccc(N3CCCC3)c([N+](=O)[O-])c2)cc1	-8	-12	x	2	3	-7	12	x
COc1ccc(C(=O)NC(=S)Nc2ccccc2N2CCOCC2)cc1[N+](=O)[O-]	-1	-4	i	1	-2	x	60	x
CCOc1ccc(N2CC(C(=O)NCc3ccccc3)CC2=O)cc1 (stereo unspecified)	2	5	i	4	-1	-6	-7	-11
O=C(NC(=S)NC1CCS(=O)(=O)C1)c1cccc([N+](=O)[O-])c1 (stereo unspecified)	-2	5	i	4	5	-4	-3	-10
Fc1ccccc1NC(=S)N/N=C/c1ccccc1Br	-2	-1	i	-2	2	-199	46	-33
C=CCn1c(=O)c(C(=O)NCCN(CC)CC)c(O)c2ccccc21	-10	-4	i	-2	3	x	-7	8
COc1ccc(NS(=O)(=O)c2cccc(C(=O)NCC(c3ccccc3)N(C)C)c2)cc1 (stereo unspecified)	x	x	i	3	-2	5	-3	-16
CNC(=O)/C(C#N)=C/c1c(N2CCN(c3cccc(Cl)c3)CC2)nc2c(C)cccn2c1=O	-12	-6	i	6	0	5	6	-17
CC(=O)OCCCCON1C(=O)c2ccccc2C1=O	-3	-7	i	5	2	x	15	-17
CCN1CCN(C(=O)CSc2cc(=O)n(CC)c3ccccc23)CC1	11	5	i	8	12	-14	-6	-12
CCOC(=O)N1CCC(N(CCOC)C(=S)Nc2cccc(SC)c2)CC1	2	-12	i	5	1	3	-8	-23
CCC(=O)N1CCCC1(C)C(=O)Nc1cc(OC)ccc1OC (stereo unspecified)	x	x	x	-1	1	-10	x	-18
CN(CC(=O)NCC1CCCCC1)S(=O)(=O)c1ccc(Cl)cc1	1	15	i	1	-1	-2	-3	-16
COc1ccccc1NCC(=O)NC(=O)NC1CCCCC1	x	x	x	3	3	-13	-11	3
Cc1nn(C)cc1/C=N\NC(=O)c1ccc(Cn2cc(Cl)cn2)cc1	1	-2	i	4	5	x	0	x
CCN(C(=O)COC(=O)C1CCN(S(=O)(=O)c2ccc3c(c2)OCCO3)CC1)C1CCS(=O)(=O)C1 (stereo unspecified)	x	x	i	3	-1	-3	-8	-13
CSCC[C@H](NC(=O)C1=NN(c2c(F)c(F)cc(F)c2F)C(=O)CC1)c1nc2ccccc2[nH]1	-2	-1	i	3	5	10	-6	-6
O=[N+]([O-])c1ccc(OCCCn2cncn2)cc1	-4	5	i	1	2	-19	-9	-20
Cc1ccc(Cl)cc1NC(=O)C1CC1c1ccccc1 (stereo unspecified)	14	-1	i	-2	-2	16	x	-3
Cc1ccc(-c2nc(CS(=O)(=O)CC(=O)NC3CCCCC3C)c(C)o2)cc1 (stereo unspecified)	-11	6	i	4	-5	18	-7	-14
Nc1c(Cl)cc(-c2csc(N3CCCC3c3nc4cc(Cl)c(N5CCCCC5)cc4n3CCOCCO)n2)cc1Cl (stereo unspecified)	x	x	i	-1	-3	u	19	-14
Nc1ccc(Sc2nc3ccccc3[nH]2)cc1	10	-10	i	0	-1	7	-6	x

Next section; the last 3 above are carried over.
SMILES	eIF4H FP inh	PABP FP inh	Rce1 inh	MT1-MMP act inh	MT1-MMP act inh RFP	Env fusion inh	CSC inhib	UUG fidelity
Cc1ccc(-c2nc(CS(=O)(=O)CC(=O)NC3CCCCC3C)c(C)o2)cc1 (stereo unspecified)	-11	6	i	4	-5	18	-7	-14
Nc1c(Cl)cc(-c2csc(N3CCCC3c3nc4cc(Cl)c(N5CCCCC5)cc4n3CCOCCO)n2)cc1Cl (stereo unspecified)	x	x	i	-1	-3	u	19	-14
Nc1ccc(Sc2nc3ccccc3[nH]2)cc1	10	-10	i	0	-1	7	-6	x
CCCc1cc(=O)n2[nH]c(SCc3ccc(Cl)cc3)nc2n1	-14	-6	i	-2	-5	14	2	-4
N#Cc1ccsc1NC(=O)c1ccc(Cl)c([N+](=O)[O-])c1	-4	8	i	2	-23	19	23	x
Cc1ccc([N+](=O)[O-])c(C)[n+]1C	15	1	x	-4	-4	-2	-12	-1
N#Cc1ccccc1OCC(=O)NCC(c1cccs1)N1CCOCC1 (stereo unspecified)	-6	-7	i	-3	4	x	-4	2
O=C(NC1CCCc2c1cnn2-c1ccc(F)cc1F)c1ccccc1N1CCOCC1 (stereo unspecified)	-4	3	i	-4	-6	-148	-7	7
O=C(CNc1cccc(S(=O)(=O)N2CCCC2)c1)Nc1cccc(F)c1	x	x	i	6	-7	11	x	-12
Cc1ccc(CNC(=O)C(N=C2NS(=O)(=O)c3ccccc32)C(C)C)cc1 (stereo unspecified)	x	x	x	-5	0	x	16	-9
CC(C)NC(=O)c1nn2c(C(F)(F)F)cc(-c3ccco3)nc2c1Cl	5	-10	i	-13	2	8	-8	-12
CC(=O)Nc1ccc(NC(=O)C2(C)Cc3c(-c4ccccc4)ccnc3O2)cc1 (stereo unspecified)	x	x	x	0	-1	14	x	-3
CCSc1nsc(NC(=O)Nc2ccc(F)cc2F)n1	-12	0	i	7	-21	x	46	-12
COc1ccccc1CN=C1NC(=O)C(CC(=O)Nc2ccc(C(C)=O)cc2)S1 (stereo unspecified)	18	4	i	3	4	-4	-12	-11
COc1ccc(C)cc1Nc1n[n+](-c2ccccc2)c(-c2cc(OC)c(OC)cc2Br)s1	-11	-4	i	3	-2	-10	51	-26
O=C(NCC1CCCO1)c1ccc(S(=O)(=O)Nc2ccccc2F)cc1 (stereo unspecified)	x	x	i	3	-1	-2	-12	x
O=C(Oc1ccc[nH]c1=O)c1cccc(Cl)c1	11	4	i	-1	-1	11	18	-12
Cc1ccc(C)c(N(CC(=O)NC2CCCC2)C(=O)c2csnn2)c1	3	3	i	-2	-1	-12	-10	-6
CSCCC(NC(=O)c1ccco1)C(=O)N1CCCCCCC1 (stereo unspecified)	x	x	i	-1	-3	-12	-6	-15
CC(=O)N1CCN(c2ccc(NC(=O)c3cc4ccccc4o3)cc2)CC1	-1	1	i	-1	-3	-70	5	-10
O=C(CSc1nnc2ccccn12)Nc1ccc(S(=O)(=O)N2CCOCC2)cc1	-9	14	i	-2	3	-5	-10	x
COCCN1CCN(C(=O)c2ccc3nc(Cc4ccc(OC)c(OC)c4)oc3c2)CC1	4	-2	x	11	-29	-7	-6	-5
O=c1c2ccccc2ncn1-c1cccc([N+](=O)[O-])c1	x	x	i	3	3	-120	-10	x
Cc1ccccc1NC(=O)CSc1nc(Nc2ccccc2)nc(N2CCOCC2)n1	-2	-2	i	-3	-10	x	0	-7
COc1cccc(N(C(=O)c2snc(C(N)=O)c2N)C(C(=O)NCc2ccccc2)c2ccc(O)cc2)c1 (stereo unspecified)	-5	-6	i	-2	-5	-3	-16	-6
COCCNC(=O)/C(C#N)=C1\N=C(NC(=O)c2ccco2)c2ccccc21	x	x	x	-8	1	-2	x	4
O=C(NCc1ccccc1)N1CCC(Cc2ccccc2)CC1	-3	9	i	4	4	14	-15	-25
CCC(=O)OC1(C)C(=O)C=C2C=C(CCCC(=O)OC)OC=C2C1=O (stereo unspecified)	x	x	i	-3	17	21	3	-15

More entries follow:
SMILES	eIF4H FP inh	PABP FP inh	Rce1 inh	MT1-MMP act inh	MT1-MMP act inh RFP	Env fusion inh	CSC inhib	UUG fidelity
CC(C)c1csc(CN2CCC(CO)(Cc3cccc(F)c3)CC2)n1	2	2	i	3	-12	-3	-2	x
O=C(N/N=C/c1c[nH]c2ccccc12)c1cc(-c2ccc(-c3ccccc3)cc2)n[nH]1	0	-3	i	-1	-3	-188	-9	-12
O=C(CCS(=O)NCc1ccccc1)NCc1ccccc1 (stereo unspecified)	4	-9	i	x	x	x	19	x
Cc1ccc(C)c(OCCCC(=O)N2CCOCC2)c1	-4	3	i	-3	-1	-4	-5	-11
CCOC(=O)C1=C(C)N=c2s/c(=C\c3ccc(O)c([N+](=O)[O-])c3)c(=O)n2C1c1ccccc1OC (stereo unspecified)	1	19	i	13	-11	3	51	-11
Cc1cc(C)c(NC(=O)C2CCCN(S(=O)(=O)c3c(C)noc3/C=C/N(C)C)C2)c(C)c1 (stereo unspecified)	-2	6	i	0	0	-16	-13	-13
CCn1ncc(Br)c1C(=O)Nc1cc(C)cc(C)c1	-1	32	i	3	3	x	0	x
Cc1cc2nnc(SC(C)C)n2c2ccccc12	8	-10	i	0	2	x	-10	x
Cc1ccc(NC(=O)N(C2=NCC(C)S2)c2ccccc2)cc1 (stereo unspecified)	x	x	i	4	-2	-27	3	-14
Cc1cc(C)n2nc(S(=O)(=O)NCCc3ccccc3)nc2n1	4	-4	i	0	2	-19	-7	-8
N#CC(C(=O)c1ccccc1Cl)=C1SCCCS1	10	5	i	1	5	0	-1	-14
Cc1cccc(/C=N/NC(=O)NC2CCCCC2)c1	3	-6	i	3	-2	x	-12	-11
O=C(Cn1nnc2ccccc21)N/N=C\c1cccs1	-5	-9	i	5	3	12	-10	x
COc1cc2[nH]c(=S)n(NC(=O)c3ccccc3)c(=O)c2cc1OC	2	5	i	3	-2	-32	x	-27
COc1ccc(S(=O)(=O)Nc2ccc3c(c2)OCCO3)cc1Cl	-8	3	i	2	-8	x	-6	x
CCOc1ccc(C(=O)CCC(=O)NC2=NCCS2)cc1	x	x	i	-5	1	-5	-6	-19
Cc1ccc(Nc2nnc(SCC(=O)N(C)C3CCS(=O)(=O)C3)s2)cc1 (stereo unspecified)	-13	-2	i	-5	-4	-2	-13	-5
CCc1c(C#N)c(N)nc(SCC(=O)OCc2ccccc2)c1C#N	-5	-7	i	2	2	-37	-9	-6
O=C(Nc1ccc(-c2nc3ccccc3[nH]2)cc1)c1ccccc1NS(=O)(=O)c1ccc(F)cc1	-9	18	i	18	-4	-10	-14	-7
CC(C)(C)c1ccc(-c2noc(CCC(=O)NCC3CCCO3)n2)cc1 (stereo unspecified)	3	4	i	4	-2	75*	3	x
COc1ccc(OC)c2c1sc(=NC(=O)C1CCCCC1)n2C	0	-5	i	1	0	17	-5	-25
O=C(OCc1ccc(Cl)c(Cl)c1)c1cnccn1	-6	-1	i	2	1	-57	x	-5
CCOC(=O)[C@@H]1[C@H]2COc3ccccc3[C@H]2N2C(=O)N(c3cccc(F)c3)C(=O)[C@]12C	-7	6	i	-1	0	4	-16	-17
O=C(O)CCN1C(=O)/C(=C\c2ccncc2)SC1=S	-1	-9	i	1	2	-6	19	-20
Nc1c(C(=O)Nc2ccccc2)sc2ncc([N+](=O)[O-])cc12	-1	-1	i	-1	-2	-4	-1	-11
CCCn1c(=S)[nH]c2cc(C(=O)N3CCc4ccccc4C3)ccc2c1=O	6	-16	i	-1	2	-14	12	x
CC1(C(=O)NC2CCCC2)CCC(=O)N1C1CCN(Cc2ccccc2)CC1 (stereo unspecified)	x	x	x	1	3	16	x	-5
